Mtb H37Rv = Mycobacterium tuberculosis H37Rv growth inhibition, cell based, confirmatory dose response (AID 1949) | most inactive calls were filed without a number and no value below 0 was filed | 1.6% of 100,000 active | inhibition, % at 10 µg/mL, or IC50 in µg/mL where a hit was titrated;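 active = confirmed in a dose series; inconclusive = about 50% or more but not retested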;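 note: bacteria grown 7 days with compound before Alamar blue readout; 0% = untreated bacteria and 100% = reference antibiotic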
* = called active by the depositor; i = inactive; ? = inconclusive. Only part of the results is shown; the hit share may differ from the screen's.

SMILES | Mtb H37Rv
Cc1cc2nc(-c3cccc(NC(=O)C(C)C)c3C)oc2cc1C | i
CCCCNCCCOc1ccc(OCc2ccccc2)cc1 | 9%
COc1ccc(NC(=O)c2cc([N+](=O)[O-])ccc2NCCO)cc1 | i
COC(=O)CSc1nnc(COc2ccc3c(c2)OCO3)n1-c1ccccc1 | i
CCc1ccccc1NC(=S)NNC(=O)c1ccccc1Cl | i
CS(=O)(=O)Nc1ccccc1C(=O)N1CCCCC1 | i
CCOC(=O)c1ccc(-n2cc3c(c2-c2ccccc2)c(=O)n(C)c(=O)n3C)cc1 | 41%
COc1ccc(S(=O)(=O)N2CCC(C(=O)Nc3cc([N+](=O)[O-])ccc3C)CC2)cc1C | 3%
COc1ccccc1Oc1ccc(NS(=O)(=O)c2ccccc2C#N)cc1 | 4%
CCOC(=O)c1c(N)c(C#N)cn1-c1ccccc1 | i

Structural class, the compounds so far with nitrogen in an aromatic ring.
SMILES | Mtb H37Rv
Cc1cc2nc(-c3cccc(NC(=O)C(C)C)c3C)oc2cc1C | i
COC(=O)CSc1nnc(COc2ccc3c(c2)OCO3)n1-c1ccccc1 | i
CCOC(=O)c1ccc(-n2cc3c(c2-c2ccccc2)c(=O)n(C)c(=O)n3C)cc1 | 41%
CCOC(=O)c1c(N)c(C#N)cn1-c1ccccc1 | i

The listing continues.
SMILES | Mtb H37Rv
Cc1ccc(S(=O)(=O)N(c2cccc3ccccc23)C(F)F)cc1 | i
COc1cc(CNCc2ccco2)cc(OC)c1OC | i
Cc1ccc(S(=O)(=O)Nc2ccccc2C#N)cc1[N+](=O)[O-] | i
CN(CC(=O)NC1CCCC1)S(=O)(=O)c1cc(Cl)ccc1Cl | i
Oc1ccccc1-c1nc(N2CCN(C(c3ccccc3)c3ccccc3)CC2)c2ccccc2n1 | i
CCN(CC)c1ccc(/C=C(/C#N)c2ccc(C(=O)O)cc2)c(OC)c1 | 14%
Cc1cc(C(=O)n2cnnc2N)ccc1[N+](=O)[O-] | 2%
COCCSc1nnc(NS(=O)(=O)c2ccccc2)s1 | i
OC(COc1ccc(Br)cc1)CN1CCN(c2ccccn2)CC1 (centres undefined) | i
Cc1nc(-c2cccc(NC(=O)c3ccc(Cl)cc3Cl)c2)cs1 | i
Cc1nc2nc(COc3ccccc3)[nH]n2c(=O)c1Cc1ccccc1 | i
Cc1c(NC(=O)CSCc2ccccc2)cccc1C(=O)O | i
O=C(Cc1ccccc1)N1CCN(C2CCCCCC2)CC1 | i
COc1ccc(C(=O)Nc2cccc(N(C)S(C)(=O)=O)c2)cc1OC | i
COc1ccc(CCNC(=O)NS(=O)(=O)c2ccc(C)cc2)cc1OC | 2%
COc1ccc2nc(SC3CC(=O)N(c4ccccc4I)C3=O)nc(C)c2c1 (centres undefined) | 1%
Cc1cccc(NC(=S)NC(=O)c2ccc(C)c(Br)c2)c1 | 0%
COc1ccc(N(CC(=O)NCCSc2ccccc2)S(=O)(=O)c2ccccc2)cc1OC | 3%
N#C/C(=C/c1ccccc1OCC(=O)Nc1ccccc1)c1cccc(F)c1 | 26%
Cc1cccc(C(=O)Nc2nnc(Cc3ccccc3F)s2)c1 | i
O=C(O)Cn1cc(C(=O)c2ccccc2)c2ccccc21 | i
CC(=O)Oc1ccc(C(=O)NCCc2ccccc2)cc1 | i
COCCCNC(=O)c1ccc(CSc2ccc(C)cc2)cc1 | 7%
Cc1ccccc1N(CC(=O)O)S(=O)(=O)c1ccc(Cl)cc1 | i
c1ccc2c(c1)OCC(c1nn3c(-c4ccncc4)nnc3s1)O2 (centres undefined) | i
CS(=O)(=O)Nc1ccc2c(c1)OCCO2 | i
COc1ccc(S(=O)(=O)N2CCN(c3cccc(Cl)c3)CC2)cc1OC | i
CCCn1c(Nc2cccc(Cl)c2)nc2ccccc21 | i
CC1CCN(c2nc(-c3cccnc3)nc3ccccc23)CC1 | i
O=C(Nc1ccccc1N1CCCC1)c1cccc([N+](=O)[O-])c1 | 3%
CNc1nc(Oc2ccc(=O)n(C)n2)nc(SC)n1 | i
CCOC(=O)CN(C)c1nc(-c2ccc(OC)c(OC)c2)cs1 | i
COc1ccc(N2C(=O)CC(Sc3nc4ccccc4s3)C2=O)cc1OC (centres undefined) | i
Cc1ccc(-c2nc(-c3ccccc3)no2)cc1Cl | 3%
Cc1cccc(-c2nc3ccccc3o2)c1 | 1%
Fc1ccc(-n2c(-c3cccnc3)n[nH]c2=S)cc1 | i
CC(=O)OCc1nc2ccccc2s1 | i
CN1CCN(c2cc3[nH]c(=S)[nH]c3cc2F)CC1 | i
COc1ccc(NC(=S)N2CC(C)OC(C)C2)cc1 (centres undefined) | i
Cc1nc(SCC(N)=O)[nH]c(=O)c1Cc1ccccc1 | i
COc1ccc(S(=O)(=O)NCc2ccccc2)cc1-c1nnc2c3ccccc3c(C)nn12 | i
O=C(CSCc1ccc(Cl)cc1)Nc1ccccc1C(=O)N1CCOCC1 | i
COc1ccc(-n2c(CCc3ccccc3)nnc2SCC(=O)c2ccccc2)cc1 | 3%
COc1cccc2cc(-c3ccc(Cl)cc3)c(=O)oc12 | i
Cc1ccc(NC(=O)COc2cc3oc(=O)c4c(c3cc2Cl)CCC4)cc1 | i
CCCNCc1cccc(OC)c1OCc1ccccc1 | i
CCn1c(SCC(=O)N2c3ccccc3Sc3ccccc32)nnc1-c1ccncc1 | 0%
COc1cccc(NC(=O)CC2NC3CCCCC3NC2=O)c1 (centres undefined) | i
CCN(C1CCS(=O)(=O)C1)S(=O)(=O)c1cccs1 (centres undefined) | i
CC1(C)Cc2nc(NCc3ccccc3)c(C#N)cc2CO1 | 2%

Continued; it opens with the four that closed the last part.
SMILES | Mtb H37Rv
CCn1c(SCC(=O)N2c3ccccc3Sc3ccccc32)nnc1-c1ccncc1 | 0%
COc1cccc(NC(=O)CC2NC3CCCCC3NC2=O)c1 (centres undefined) | i
CCN(C1CCS(=O)(=O)C1)S(=O)(=O)c1cccs1 (centres undefined) | i
CC1(C)Cc2nc(NCc3ccccc3)c(C#N)cc2CO1 | 2%
CCCOc1ccc(NC(=O)C(=O)NCCCN2CCOCC2)cc1 | i
COc1cccc(C(=O)Nc2cccc(N=C(N)CCCC(=O)O)c2)c1 | 0%
CCOC(=O)Cc1csc(NC(=O)COc2ccc(Br)cc2C)n1 | i
Cc1ccc(NC(=S)NNC(=O)c2ccccc2O)c(C)c1 | 2%
O=C(Nc1ccc2oc(-c3cc(F)c(F)cc3Cl)nc2c1)c1ccco1 | i
COc1ccc(CN2C(=O)C(=O)c3cc(Br)ccc32)cc1OC | i
COc1cc(CNCc2cccs2)ccc1OCC(=O)NC(C)(C)C | i
COc1nc(NCCc2ccc(OC)c(OC)c2)nc(OC)n1 | i
C/C=C/c1ccc(OCCn2cnc3ccccc3c2=O)c(OC)c1 | i
Cc1ccc(-c2csc(NC(=O)CSc3nc4ccccc4o3)n2)cc1 | i
COc1cc(OC)c(OC)cc1CNCCc1ccccc1F | i
COc1ccc(OC(C)C(=O)Nc2cccc(F)c2)cc1 (centres undefined) | 5%
CC1CCN(C(=O)Cn2nnc(-c3ccccc3)n2)CC1 | i
Cc1cc(C)nc(NC(=NCc2ccc(Cl)cc2)NC(=O)C(C)N2C(=O)c3ccccc3C2=O)n1 (centres undefined) | 5%
Cc1nn(C(=O)C2CC2)c(C)c1Sc1ccc(Cl)cc1 | 1%
O=C(NC(=S)N1CCCC1)c1ccc(-c2ccccc2)cc1 | 1.4µg/mL*
CCOC(=O)CSc1c(-c2ccccc2)c2cc(Cl)ccc2[nH]c1=O | i
Cc1ccc(-c2nn3c(=O)c4c(-c5cccs5)csc4nc3c3ccccc23)cc1 | i
CCCc1nc2ccccc2n1CC(C)CC (centres undefined) | i
Cc1ccc(SCCC(=O)Nc2ccc(C)c(C)c2)cc1 | i

Looked up by structure from the list above:
SMILES | Mtb H37Rv
CCOC(=O)CSc1c(-c2ccccc2)c2cc(Cl)ccc2[nH]c1=O | i
CCCc1nc2ccccc2n1CC(C)CC (centres undefined) | i
Cc1cc(C)nc(NC(=NCc2ccc(Cl)cc2)NC(=O)C(C)N2C(=O)c3ccccc3C2=O)n1 (centres undefined) | 5%
COc1ccc(OC(C)C(=O)Nc2cccc(F)c2)cc1 (centres undefined) | 5%

Next entries
SMILES | Mtb H37Rv
N#C/C(=C/c1cn(CCC(N)=O)c2ccccc12)c1ccc(C#N)cc1 | i
CCOC(=O)c1ccc(NC(=S)NCCCN2CCN(c3ccc(OC)cc3)CC2)cc1 | i
COc1ccc(OC(C)C(=O)Nc2ccncc2)cc1 (centres undefined) | i
CCOc1ccc(NC(=O)Nc2cc(C)ccc2OC)cc1 | i
O=S(=O)(c1ccc(Cl)c(Cl)c1)N(Cc1ccccc1)Cc1ccccc1 | i
S=C(NCCn1cc(Br)cn1)Nc1ccc2c(c1)OCO2 | i
O=c1c2c(-c3ccc(Cl)cc3)csc2[nH]c(=S)n1Cc1ccccc1 | 2%
O=C(Nc1cccc2cccnc12)c1cccs1 | i
CC1CCc2c(sc3ncnc(SCCO)c23)C1 (centres undefined) | i
C=CCn1c(SCC(=O)c2ccc(F)cc2)nnc1-c1ccc([N+](=O)[O-])cc1 | i
CC(=O)c1ccc(NC(=O)CCC(=O)OCC(=O)c2ccc(Br)cc2)cc1 | i
Cc1c(C=O)c2ccccc2n1CC(=O)N1CCCCCC1 | i
C=CCn1c(SCCCC)nc2ccc(I)cc2c1=O | 1%
COc1ccc(S(=O)(=O)N(C)CC(=O)N2CCN(c3ccccc3)CC2)cc1OC | 2%
O=C(Nc1ccc(-c2n[nH]c(=S)o2)cc1)c1ccccc1Cl | i
CC(=O)Nc1c(O)nc(SCC(=O)Nc2cc(C(F)(F)F)cc(C(F)(F)F)c2)[nH]c1=O | 1%
CCN(CC)C(=O)c1sc(NC(=S)NCCc2ccc(OC)c(OC)c2)c(C(=O)OC)c1C | i
CC(C)OC(=O)c1ccc(NS(=O)(=O)c2ccc3ccccc3c2)cc1 | i
Cc1nc2sc3c(c2c2nnc(SCC(=O)c4ccccc4)n12)CCCC3 | i
Cn1cccc1-c1nc2ccc(NC(=O)c3ccco3)cc2[nH]1 | i

Exported field by field: four of the compounds above.
> O=C(NC(=S)N1CCCC1)c1ccc(-c2ccccc2)cc1
  Mtb H37Rv: 1.4µg/mL*

> CCOC(=O)CSc1c(-c2ccccc2)c2cc(Cl)ccc2[nH]c1=O
  Mtb H37Rv: i

> Cc1ccc(-c2nn3c(=O)c4c(-c5cccs5)csc4nc3c3ccccc23)cc1
  Mtb H37Rv: i

> CCCc1nc2ccccc2n1CC(C)CC (centres undefined)
  Mtb H37Rv: i

Carrying on.
SMILES | Mtb H37Rv
COc1ccc2cc3c(nc2c1)OCC3 | i
COc1cccc(-c2nnc(SCc3ccc(F)cc3)n2N)c1 | i
CCC(C)NC(=O)CN(C)S(=O)(=O)c1ccc(Cl)cc1 (centres undefined) | i
NC(=O)Cn1cnc(-c2ccc(F)cc2)c1 | 4%
O=c1oc2c(ccc3c(O)cccc32)c2c1CCCC2 | 14%
Cc1cc(C)cc(OCC(=O)Nc2nc3ccc(Cl)cc3s2)c1 | i
O=c1c2ccccc2nc(SCCOc2ccccc2F)n1-c1ccccc1 | i
CC(C)(C)c1ccc(CNC(=O)c2ccccc2Cl)cc1 | 8%
O=Cc1ccc(Oc2ncnc3sc(-c4ccccc4)cc23)cc1 | i
Cc1cc(Cl)ccc1OC(C)C(=O)Nc1cccc(NC(=O)c2ccco2)c1 (centres undefined) | i
CCCOc1ccc(Oc2nc(N(CC)CC)nc(N3CCOCC3)n2)nn1 | i
CC(C)c1ccccc1OCC(=O)Nc1ccc(S(=O)(=O)NC(C)(C)C)cc1 | 2%
Cc1cc(=O)oc2cc(Oc3nnnn3-c3ccccc3)ccc12 | i
CCOc1ccc(S(=O)(=O)/N=C(/c2ccccc2)N(C)C)cc1 | i
O=C(Nc1ccc(Cl)cc1)C1C2/C=C\CCCCC21 (centres undefined) | 4%
Clc1ccc(-c2onc3ccc(I)cc23)cc1 | 1%
N#CC1=C(SCC(=O)Nc2cccc3cccnc23)NC(=O)C(C#N)C12CCCCC2 (centres undefined) | i
O=C(NCc1ccccn1)C1CCN(C(=O)c2ccc(-c3ccccc3)cc2)CC1 | i
O=C(CSc1nnc(NC(=O)CCc2ccccc2)s1)Nc1cccc([N+](=O)[O-])c1 | i
CC(C)(CO)NCc1ccc(-c2ccccc2)o1 | i
O=C(COc1ccc2ccccc2c1)Nc1c[nH]c(=O)[nH]c1=O | i
COc1ccc(C)cc1N(CC(=O)Nc1ccc(F)cc1)S(=O)(=O)c1ccccc1 | 22%
O=S(=O)(Cc1ccccc1)Nc1cc(Cl)cc(Cl)c1 | 2%
COc1cc(CN2CCN(C3CCN(Cc4ccccc4)CC3)CC2)cc(OC)c1O | i
CC(C)Cc1nnc(NC(=O)CCCN2C(=O)CCC2=O)s1 | i
CCOc1cccc(C(=O)Nc2cc(C)c(C)cc2O)c1 | 14%
Cc1onc(-c2c(F)cccc2Cl)c1C(=O)NCC1COc2ccccc2O1 (centres undefined) | 4%
CCOC(=O)c1cccc(NC(=O)CSc2nnc(-c3ccco3)n2CC)c1 | i
O=C(CSc1ccc(C(F)(F)F)cc1[N+](=O)[O-])OC1CCCCC1 | 1.3µg/mL*
C#CCOc1ccccc1/C=C/[N+](=O)[O-] | ?
CCn1c(SCC(=O)Nc2sc3c(c2C#N)CCCC3)nnc1C(C)NC(=O)c1ccccc1Br (centres undefined) | i
CN(C)CC[n+]1cccc(C(N)=O)c1 | 50%
CCOC(=O)c1ccc(N2C(=O)CC(N3CCC(CCN4CCCC4=O)CC3)C2=O)cc1 (centres undefined) | i
O=C(Oc1ccccc1Cl)C(Cc1ccccc1)N1C(=O)c2ccccc2C1=O (centres undefined) | i
O=C(NC(=S)Nc1ccccc1N1CCCC1)c1ccc(-c2cccc(Cl)c2)o1 | 12%
COc1ccc(CN2CCC(N3CCc4ccccc4C3)CC2)cc1OCc1ccccc1 | i
FC(F)(F)c1cc(-c2ccc(Br)cc2)n[nH]1 | 6%
Cc1cc(O)cc(C)c1NC(=O)c1cccc(Cl)c1 | i
O=C(O)CCNS(=O)(=O)c1ccc(Oc2ccccc2)cc1 | i
CCN(CC)CC(=O)Nc1cccc(C)c1 | i
CCn1c(-c2ccc(OC)c(OC)c2)nc2ccccc21 | i
